# BJeLR viability: kills HRASV12-expressing BJeLR cells; BJeLR (HRASV12) viability, CellTiter-Glo ATP luminescence, 48 h; reference of the scale not given here; inhibition, % (no concentration beside the values); 300,000 compounds, 0.17% hits; AID 1554;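 active means replicate mean above 50%; inconclusive means above 50% but judged a plate artefact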;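 further: 50 nL library stock added to about 25 µL; numbers are from one replicate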
# Bead autofluor: counter-screen for toxin protease inhibitors: compound fluorescence | fluorescence intensity (no concentration beside the values) | 360,000 compounds, 3.1% hits | compound autofluorescence counterscreen, microsphere flow cytometry; active compounds read high | AID 624483;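 active means at least 3 SD above the mean of all compounds, about 16000 in these data; inconclusive means too few beads counted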;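 further: 100 nL of 1 mM stock went into each well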
# Mtb hypoxia inh: inhibitors of hypoxia-regulated fluorescent reporter in Mycobacterium tuberculosis; M. tuberculosis hypoxia-regulated fluorescent reporter, fluorescence; fluorescence inhibition, % (test concentration not listed); 300,000 compounds, 0.1% hits;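 active means 35 to 45% if threefold the growth effect, above 45% if 1.5-fold the growth effect; inactive means the rest, general growth blockers included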;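 further: wells of about 50 µL received 100 nL stock; 0% = vehicle wells and 100% = reference inhibitor wells; whole bacteria with a GFP reporter of the hypoxia response; strong numbers were not always called active; many hits fall short of the cut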
# PrP UTR inh: inhibition of PrP 5' UTR reporter expression. inhibition, % (test concentration not listed). 340,000 compounds, 0.35% hits. cell-based PrP 5' UTR mRNA reporter, plate reader. AID 488862;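 active means every replicate at 50% or more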;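 further: 0 = median of the neutral control wells; tested in H4 reporter cells; numbers are from one replicate; inactives centre near -14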
# ugtP null kill: kills S. aureus RN4220 lacking UgtP. AID 1259309. 330,000 compounds, 0.54% hits. growth inhibition, % (test concentration not listed). S. aureus RN4220 ugtP deletion, OD600 growth, 16 h; some inactives read as strong as hits;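 active means z-score under -3 and OD600 up to 0.15 on both plates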;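 further: plate controls were untreated wells for no effect and antibiotic for full effect; wells of about 80 µL received 100 nL stock; the first replicate is given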
# RN4220 kill: kills Staphylococcus aureus RN4220. S. aureus RN4220 growth, OD600, 16 h. inhibition, % (test concentration not listed). 330,000 compounds, 0.33% hits. AID 1259311;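 active means z-score of -3 or lower and OD600 up to 0.18 on both plates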;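 further: plate controls were untreated cells for no effect and reference antibiotic for full effect; stock transfer was 100 nL into about 80 µL; one replicate is shown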
# Mtb hypoxia inh growth: second read-out of Mtb hypoxia inh, no call of its own (marks repeat the call); growth inhibition, %; measured here: M. tuberculosis growth (absorbance);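 0% = vehicle and 100% = reference antibiotic; read after six days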
# * = called active by the depositor; ? = inconclusive; · = no result given; & = joins results of further samples.
SMILES,BJeLR viability,Bead autofluor,Mtb hypoxia inh,Mtb hypoxia inh growth,PrP UTR inh,ugtP null kill,RN4220 kill
CCOC(=O)C1C2COc3cc(OC)ccc3C2N2C(=O)N(c3ccc(F)cc3)C(=O)[C@]12C (some centres not stated),·,·,2&4,-6&-1,·,1&1,4.8&0.5
C[C@H]1CCC[C@]2(O[C@H](CCO)C[C@H](O)[C@H]2O)O1,5,3165,·,·,-3,·,·
COc1ccc(OCC(=O)Nc2c3c(nn2C(C)(C)C)CSC3)cc1,5,4218,15,6,-7,4,3.5
O=c1c2ccccc2ncn1-c1ccc(Cl)cc1Cl,-3,5281,3,14,·,-1,-0.3
CN(CCc1ccccn1)C(=O)CCC1CCCN(C(=O)c2c3c(nn2C)CCCC3)C1 (configuration not stated),1,4576,-10,-47,0,0,2.3
COc1ccc(CN2CCN(CCSc3ccc(C)cc3)CC2)c(OC)c1OC,1,·,10,3,-15,0,2.9
CCN1CCN(S(=O)(=O)c2ccc(Cl)c(C(=O)N(C)Cc3ccccc3)c2)CC1,·,6431,-4,-6,-13,5,2.5
Cc1ccc(S(=O)(=O)/N=C/c2cc(Br)ccc2O)cc1,10,3468,·,·,-12,·,·
CCN(CC)S(=O)(=O)c1cccc(C(=O)NNC(=O)c2ccc3[nH]c(=O)c(=O)[nH]c3c2)c1,0,5383,9,-3,1,4,4.7
CN(C)CC1CCCCC1C1(O)c2ccccc2CSc2sccc21 (configuration not stated),-1,3696,3,-8,-13,-8,-3.6
CN1CN(c2cccc([N+](=O)[O-])c2)CN=C1N[N+](=O)[O-],6,3691,2,-4,4,-1,1.1
CN1CCN(C(=O)COc2ccc(S(=O)(=O)NC3CCCCC3)cc2Cl)CC1,-5,6348,13,3,-11,-5,3.2

# Complete entries, quoted from the list. Order of values: BJeLR viability | Bead autofluor | Mtb hypoxia inh | Mtb hypoxia inh growth | PrP UTR inh | ugtP null kill | RN4220 kill
# C[C@H]1CCC[C@]2(O[C@H](CCO)C[C@H](O)[C@H]2O)O1 as listed: 5 | 3165 | · | · | -3 | · | ·
# CCN(CC)S(=O)(=O)c1cccc(C(=O)NNC(=O)c2ccc3[nH]c(=O)c(=O)[nH]c3c2)c1 as listed: 0 | 5383 | 9 | -3 | 1 | 4 | 4.7

# Following part:
SMILES,BJeLR viability,Bead autofluor,Mtb hypoxia inh,Mtb hypoxia inh growth,PrP UTR inh,ugtP null kill,RN4220 kill
COc1cc(/C=N/NC(N)=S)ccc1OCC(=O)N1CCOCC1,0,8317,·,·,-36,·,·
COc1ccc(S(=O)(=O)NNC(=O)c2sccc2-n2cccc2)cc1,-11,4036,3,5,-22,-11,16
Cc1ccc(C)c(OCCC(=O)Nc2ccc3c(c2)OCO3)c1,·,4198,12,22,0,-4,-0.9
CCOC(=O)C(C)Sc1nnc2c3ccccc3n(C)c2n1 (configuration not stated),-5,3801,19,6,-24,7,6.4
O=C(Nc1c(C(=O)Nc2cccc3ccccc23)cnn1-c1ccccc1)c1ccco1,17,3154,15,-25,-14,-4,13
COc1cc(CNCc2cccnc2)ccc1OCc1ccccc1,·,4260,-2,4,-23,6,15
O=C1CCCC/C1=C\Nc1ccccc1C(=O)O,2,19879*,13,11,-13,5,5.9
OCC1(CCCc2ccccc2)CCN(Cc2cc(F)ccc2F)CC1,1,3192,3,-2,-22,-2,2.1
O=S(=O)(c1ccc2c(c1)OCCO2)N1CCN(c2nc3ccccc3s2)CC1,-14,6478,0,0,-17,5,3.0
COc1ccccc1C=NNC1=NCCCCC1,·,·,17,8,·,3,5.1
Cc1ccccc1CNCCCSc1ncccn1,-15,4227,15,5,-2,12,4.5
Cn1ccnc1SCC(=O)Nc1cccc([N+](=O)[O-])c1,-21,3670,5,-6,-28,1,-2.4

# Reformatted: 2 of the compounds above.
# Order of values: BJeLR viability	Bead autofluor	Mtb hypoxia inh	Mtb hypoxia inh growth	PrP UTR inh	ugtP null kill	RN4220 kill
O=c1c2ccccc2ncn1-c1ccc(Cl)cc1Cl
→ -3	5281	3	14	·	-1	-0.3
CN(CCc1ccccn1)C(=O)CCC1CCCN(C(=O)c2c3c(nn2C)CCCC3)C1 (configuration not stated)
→ 1	4576	-10	-47	0	0	2.3

# Further records:
SMILES,BJeLR viability,Bead autofluor,Mtb hypoxia inh,Mtb hypoxia inh growth,PrP UTR inh,ugtP null kill,RN4220 kill
COc1ccc(N2C(=O)CC(NC3CCCCNC3=O)C2=O)cc1 (configuration not stated),-12,2743,·,·,-1,6,1.7
COc1ccc2sc(NCc3ccccc3)nc2c1,1,5175,-1,-4,-106,3,7.1
CCn1c(=N)n(CC(O)c2ccccc2)c2ccccc21 (configuration not stated),0,3003,-6,7,-3,-3,1.4
C=C1[C@H]2C[C@H]3[C@H]4N5C[C@]6(C)CCC[C@]47[C@H]([C@H]2O)[C@]3(C[C@]5(O)[C@H]67)[C@@H]1O,-5,5433,·,·,-11,-8,5.9
O=c1oc2ccc(Cl)cc2nc1/C=C(\O)c1cccs1,-6,·,2,-5,-31,1,1.9
Cc1cccc(C)c1NC(=O)CN(C)CC(=O)Nc1ccccc1Br,2,4493,·,·,-18,4,4.8
Cc1ccnc(N2CCCC(C(=O)Nc3ccc(C)c(C)c3)C2)n1 (configuration not stated),-7,2894,3,-1,-26,5,-3.1
C=CCN1C(=O)/C(=C2/C(=O)N(CC(=O)O)c3ccccc32)SC1=Nc1nccs1,·,·,1,-2,·,9,0.7
CC(=O)c1ccc(NC(=O)CSc2ccc(-c3ccco3)nn2)cc1,-11,5535,6,8,-14,-13,2.9
CCOC(=O)C1=C(C)NC2=C(C(=O)C(C(=O)OCC)C(c3ccc(OC)cc3)C2)C1c1ccccn1 (configuration not stated),-8,2914,·,·,-11,-8,-5.7
CCC(C)Cc1cn(C(CCCCNC(=O)OC(C)(C)C)C(=O)NCCCCCCCCCCC(=O)N2CCN(C(=O)OC(C)(C)C)CC2)nn1 (configuration not stated),·,·,-10,-1,·,2,-3.2
CC1=CC(=C(C#N)C#N)c2ccccc2N1C,-3,4284,·,·,18,·,·
CC(=O)c1c(C)[nH]c(C(=O)COC(=O)Cc2ccccc2F)c1C,·,?,2,8,-57,4,5.0
CC1CCCCN1C/C=C/c1ccccc1[N+](=O)[O-] (configuration not stated),-1,23342*,-8,6,-18,-2,5.6
C=CCN1CC[C@]23c4c5ccc(O)c4OC2[C@H](O)CC[C@@]3(O)[C@H]1C5 (some centres not stated),·,6544,·,·,1,-3,1.7
COc1cccc(Nc2nnc(SCC(=O)N3CCOCC3)s2)c1,-4,9825,3,-6,-26,3,2.1
CCN(CC(=O)Nc1ccc2c(c1)OCCO2)CC(=O)Nc1ccc2c(c1)OCO2,15,4394,7,9,-15,3,-0.1
Cc1cnc(NS(=O)(=O)c2ccccc2)c(Br)c1,0,5430,0,-4,-4,2,1.8
O=C(CSc1cccc[n+]1[O-])Nc1ccc2c(c1)OCCO2,-2,4103,12,-1,-18,2,1.8
COc1ccc(C(=O)CC(=O)C(=O)Nc2ccc(C)cc2Cl)cc1,0,3053,9,-3,-13,20,25
COc1ccc(S(=O)(=O)NCC(=O)N(CC(=O)NCC2CCCO2)Cc2ccccc2)cc1 (configuration not stated),4,3687,14,9,-11,0,0.7
CNC(=O)CSc1ncnc2c1cnn2-c1ccccc1,4,3354,10,0,-29,6,-3.2
Cc1onc(-c2ccccc2)c1C(=O)NC1CC1,·,·,5,-7,-8,15,7.1
CCn1c(SCC(=O)Nc2cc(NC(C)=O)ccc2OC)nnc1-c1ccncc1,-17,·,0,5,·,0,3.3

# The list goes on; the last three above are carried over.
SMILES,BJeLR viability,Bead autofluor,Mtb hypoxia inh,Mtb hypoxia inh growth,PrP UTR inh,ugtP null kill,RN4220 kill
CNC(=O)CSc1ncnc2c1cnn2-c1ccccc1,4,3354,10,0,-29,6,-3.2
Cc1onc(-c2ccccc2)c1C(=O)NC1CC1,·,·,5,-7,-8,15,7.1
CCn1c(SCC(=O)Nc2cc(NC(C)=O)ccc2OC)nnc1-c1ccncc1,-17,·,0,5,·,0,3.3
CCOC(=O)C(O)(c1ccc(NC(=S)NC(=O)c2ccc(Cl)cc2Cl)c(C)c1)C(F)(F)F (configuration not stated),-12,2386,-4,9,-7,45,9.4
CC12CCC(c3c(C(=O)O)nn(-c4ccccc4)c31)C2(C)C (configuration not stated),-5,7140,8,7,-20,12,7.9
Cc1nc2nc(SCC(=O)NCCCN3CCCCCC3)nn2c(C)c1Cc1ccccc1Cl,-2,7328,15,7,-9,2,1.0
N#CC(=Cc1cccc(Oc2ccc(C(F)(F)F)cc2[N+](=O)[O-])c1)c1nc2ccccc2[nH]1,·,·,-1,-2,·,-17,20
CN(C)CCCN=Cc1c(O)n(Cc2ccccc2)c(=O)c2ccccc12,1,2762,·,·,-17,-6,-1.8
COc1ccc(NC(=S)NC(=O)c2cncc(Br)c2)c(OC)c1,8,3423,10,6,-4,8,1.4
COC(=O)c1ccc(NC(=O)C2CC2)o1,8,2435,·,·,-19,-2,0.0
CCN(C(=O)c1cccnc1)c1ccccc1,6,3661,·,·,-2,7,1.8
COc1ccc(CC(=O)N(CCN(C)C)CC2CCCN(Cc3ccccc3F)C2)cc1 (configuration not stated),-3,4494,15,0,-22,1,4.4
CSc1cccc(NC(=O)CSc2ccc(Cl)cc2)c1,2,3534,·,·,-9,9,-11
COc1ccc(-c2cc(C(=O)Nc3ccc(Cl)cc3Cl)c3ccccc3n2)cc1OC,-3,2478,-6,7,-5,-6,-0.7
O=C(/C=C/c1ccc(Cl)cc1)N1CCOCC1,-2,3803,-4,2,-34,10,4.5
NNC(=O)c1cc2ccccc2[nH]1,5,3104,0,10,-3,-1,2.5
CCCCn1c(N)c(N(C)C(=O)c2c(C)nn(-c3ccccc3)c2C)c(=O)[nH]c1=O,·,4307,-1,5,-19,4,5.7
Fc1cccc(/C=N/NC(=S)Nc2ccccc2Cl)c1,2,2012,·,·,-19,·,·
O=C([C@H](O)c1ccccc1)N1CCC[C@H]1CO,4,2630,6,8,-14,11,5.3
CC(=O)c1c(C)oc2ccc(NS(=O)(=O)c3ccc(O)c(C(=O)O)c3)cc12,-1,2366,16,7,-7,14,9.5
C=CCn1c(N2CCOCC2)nc2c1c(=O)[nH]c(=O)n2C,0,4648,-4,7,-16,5,2.8
Cc1cccc2nc(CSc3nc4[nH]ncc4c(=O)n3-c3ccccc3Cl)cc(=O)n12,0,2622,·,·,-8,·,·
O=C1CCC(C(=O)N(CCO)Cc2ccccc2)CN1CC1CCCCC1 (configuration not stated),0,5361,1,2,-12,6,1.9
O=C(CN1C(=O)C2CCCCC2C1=O)N1CCN(c2ccc(F)cc2)CC1 (configuration not stated),-3,4650,2,-1,-31,4,0.1
COC(=O)C(CC(C)C)NC(=O)c1cccs1 (configuration not stated),·,4536,2,15,-14,11,5.2

# Assay outcomes (PubChem)
